Screening data from PubChem.
CDC25B-CDK2 inh = human CDC25B-CDK2/CyclinA binding inhibition; AID 1259370; P30305+P24941; HTRF CDC25B-CDK2/CyclinA binding, anti-His/anti-Flag; hits give high values; z-score (test concentration not listed); 94,000 compounds, 0.72% hits;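 also: score is relative to mean and SD of negative controls; strong numbers were not always called active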
HIV TAR-Tat = HIV-1 TAR-Tat binding disruption | HIV-1 TAR RNA, Tat peptide displacement FRET; hits give high values | z-score (concentration not given with the values) | 100,000 compounds, 0.6% hits;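 also: score is relative to mean and SD of negative controls; some compounds called inactive have numbers as strong as hits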
Starred values were filed as active, the others as inactive; . = not tested or not shown.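 The calls were made as follows: active = z-score from 3 up in half or more of its runs; inactive = the rest.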

Sequence of screens – CDC25B-CDK2 inh, HIV TAR-Tat
1: COC(=O)c1ccc(C(=O)OC)c(N)c1
    ., 2.21
2: CCOc1ccc(-c2c(C)[nH]n3c(=O)c(N4CCOCC4)c(C)nc23)cc1OCC
    -0.8, 1.12
3: CN(C(=O)C(=O)c1c[nH]c2ccccc12)C1CCCCC1
    -1.55, .
4: COC(=O)C1=C(N)CCS1
    0.53, .
5: Cc1ccc(-c2nc3n(c2CNC(=O)c2ccc4c(c2)OCCO4)CCS3)cc1
    ., 0.01
6: CCC(C(=O)NCc1cccnc1)n1nc(C)n2c(cc3occc32)c1=O (stereo not drawn)
    0.44, 0.67
7: N#Cc1c(-c2ccccc2)nc(SCc2ccc(F)cc2)[nH]c1=O
    0.86, -0.09
8: Clc1cccc(CSc2nc3ncccc3o2)c1
    ., -0.79
9: CC(=O)c1sc(N2CCOCC2)nc1C
    -2.4, .
10: O=C(Nc1ccc2c(c1)OCCO2)c1cc2c(s1)-c1ccsc1CC2
    ., 0.19
11: O=c1c(S(=O)(=O)c2ccccc2)cn(Cc2ccc(F)cc2)c2ccc(F)cc12
    -0.1, 0.61
12: CCCN1CCN(S(=O)(=O)c2ccc3c(c2)CC(C)N3C(=O)C2CC2)CC1 (stereo not drawn)
    ., 0.16
13: Cc1ccc(OCc2ccc(-c3nc(C#N)c(NCc4ccc5c(c4)OCO5)o3)o2)cc1
    -0.39, -0.36
14: Cc1cccc(C)c1OCC(O)Cn1nnc2ccccc21 (stereo not drawn)
    -1.32, .
15: C=C(C)CSc1nnc2n3ncnc3c3c4c(sc3n12)COC(C)(CC)C4 (stereo not drawn)
    0.02, -0.6
16: O=C(Nc1ccccc1[N+](=O)[O-])c1ccccc1O
    -1.16, .
17: Cc1cc(-n2cc(Br)c(=O)[nH]c2=O)nc(-c2ccccc2)n1
    -5.83, -0.48
18: COc1ccc(C2CC(=O)C3=C(C2)OC(N)=C(C#N)C3c2ccccc2)cc1OC (stereo not drawn)
    -1.99, .
19: CCOC(=O)N1CCC(Nc2ccc3nncn3n2)CC1
    -1.06, -2.22
20: COc1cc(C)c(Br)cc1S(=O)(=O)n1ccnc1C(C)C
    -0.63, -1.13
21: COC(=O)c1sc(N2C(=O)c3oc4ccccc4c(=O)c3C2c2cccc(O)c2)nc1C (stereo not drawn)
    0.08, 0.78
22: COc1cc2c(cc1OC)C1c3ccccc3NC(=O)CN1CC2 (stereo not drawn)
    -2.31, .
23: O=S(=O)(Nc1ccc2oc(-c3ccccc3F)nc2c1)c1ccccc1
    -1.81, 0.57
24: COc1cc(CO)ccc1Oc1nc([N+](=O)[O-])nn1Cc1ccccc1F
    0.74, 0.1
25: COc1cc(C2CC(=O)NC3=C2C(=O)CC(c2ccc(F)cc2)C3)ccc1O (stereo not drawn)
    -1.76, -1.49
26: Cc1ccc(-c2nc3cc(C(C)C)ccc3o2)cc1N
    -0.21, 0.11
27: O=C1NC(=O)C(c2ccc(Cl)cc2)N1 (stereo not drawn)
    -1.29, 1.09
28: Cc1oc2cc(Br)c(OC(=O)C(C)C)cc2c1C(=O)OC(C)C
    -0.02, 1.6
29: O=S(=O)(C1=CC23CCCC2(C=C(S(=O)(=O)c2ccc(Cl)cc2)C3)C1)c1ccc(Cl)cc1 (stereo not drawn)
    -1.53, .
30: CC(C)Sc1c(Cl)cccc1[N+](=O)[O-]
    0.14, .

Whole records, quoted from the list. Screens in order: CDC25B-CDK2 inh | HIV TAR-Tat
CCOc1ccc(-c2c(C)[nH]n3c(=O)c(N4CCOCC4)c(C)nc23)cc1OCC as listed: -0.8 | 1.12
C=C(C)CSc1nnc2n3ncnc3c3c4c(sc3n12)COC(C)(CC)C4 (stereo not drawn) as listed: 0.02 | -0.6
O=C1NC(=O)C(c2ccc(Cl)cc2)N1 (stereo not drawn) as listed: -1.29 | 1.09
CCCN1CCN(S(=O)(=O)c2ccc3c(c2)CC(C)N3C(=O)C2CC2)CC1 (stereo not drawn) as listed: . | 0.16
COc1cc(CO)ccc1Oc1nc([N+](=O)[O-])nn1Cc1ccccc1F as listed: 0.74 | 0.1

(further entries)
Sequence of screens – CDC25B-CDK2 inh, HIV TAR-Tat
31: Cc1nn(-c2nc3ccccc3[nH]2)c2c1C(c1cccs1)CC(=O)N2 (stereo not drawn)
    ., 1.04
32: Cc1cc(Cl)cc2c1C(=O)/C(=C\c1ccccc1O)S2
    -0.5, .
33: CCN1CCN(C(c2cc(OC)c(OC)c(OC)c2)c2sc3nc(C)nn3c2O)CC1 (stereo not drawn)
    -0.28, .
34: O=C(CSc1nnc(-c2cccnc2)o1)NC1CCCC1
    0.52, 4.56*
35: CCn1cc(S(=O)(=O)c2ccc(C)cc2)c(=O)c2cc(F)c(N3CCOCC3)cc21
    ., 0.19
36: N#Cc1ccc(OCOc2ccc(C#N)cc2)cc1
    1.27, .
37: COc1ccc(-c2cnc(C)o2)cc1S(=O)(=O)Nc1ccc(C)c(F)c1
    ., 0.77
38: Cc1ccc(SCC(=O)OCc2cc(=O)n3nc(C)sc3n2)cc1
    ., -1.38
39: C=CCN1C(=O)C(O)(CC(=O)c2ccc(OC)cc2OC)c2ccccc21 (stereo not drawn)
    -0.34, 0.22
40: O=C(Nc1ccc2c(c1)OCCO2)N1CCC(CN2CCCC2)CC1
    ., 0.95
41: CS(=O)(=O)c1cccc(CNc2nc(Nc3ccc4c(c3)CCC(=O)N4)ncc2C(F)(F)F)c1
    3.2, .
42: CCSc1nc(C2CC2)cc(-c2ccco2)c1C#N
    -8.64, .
43: CCOc1ccc(C2=C(CN3CCOCC3)C(c3ccccc3)c3ccccc3O2)cc1 (stereo not drawn)
    -0.29, .
44: Cc1ccc(-c2nc(NC(=O)CSc3nnc4scc(-c5ccccc5)n34)ns2)cc1
    1.42, 1.58
45: COc1ccc(OC)c2sc(N(CCCN(C)C)C(=O)c3ccco3)nc12
    ., 4.98
46: CCOC(=O)C(C)Oc1ccc2c(=O)c(Oc3ccc(CC)cc3)coc2c1 (stereo not drawn)
    -0.53, .
47: C/C=C/c1ccc(OC)cc1
    ., -1.09
48: CCOc1ccc(N2C(=O)Nc3ccccc3C2(O)C(=O)NCCCN2CCCCC2)cc1 (stereo not drawn)
    -1.64, .
49: CN(C(=O)Nc1cn(C)c(=O)c2ccccc12)c1ccc(F)cc1
    ., 0.79
50: CC1CC(=O)Nc2cc(S(=O)(=O)N(Cc3ccco3)C3CCCCC3)ccc2S1 (stereo not drawn)
    ., 0.64
51: O=[N+]([O-])c1ccc(NS(=O)(=O)c2ccc(Cl)cc2)c(Cl)c1
    0.98, .
52: Cc1ccc(C2CC(=O)Nc3n[nH]c(-c4ccc(Cl)cc4)c32)cc1 (stereo not drawn)
    -0.89, 0.55
53: CC(=O)c1c(OCc2ccccc2)ccc(C(C)(C)C)c1O
    -1.16, .
54: COC(=O)c1ccc(C2c3c(oc4cc(C)c(C)cc4c3=O)C(=O)N2CCCN(C)C)cc1 (stereo not drawn)
    -1.62, 0.12
55: COCCNC(=O)Cn1nc(-c2ccco2)ccc1=O
    ., 0.9
56: COC(=O)c1ccc(C(=O)OC)c(NC(=O)C2CC3CCC2C3)c1 (stereo not drawn)
    1.36, -0.45
57: O=C(NCCCN1CCOCC1)C1CCN(c2nnc(-n3cccc3)s2)CC1
    -0.32, -1.84
58: CN(C(=O)Cn1cc(S(=O)(=O)Cc2ccccc2F)c2ccccc21)C1CCCCC1
    ., 1.36
59: COc1ccc(NS(=O)(=O)c2ccc3c(c2)NC(=O)CCS3)cc1OC
    ., 1.8
60: Cc1c(C(=O)NCCNc2ccc(C(F)(F)F)cc2[N+](=O)[O-])cnn1-c1ccc(F)cc1
    -0.84, .

Next section, overlapping the part above by four compounds.
Sequence of screens – CDC25B-CDK2 inh, HIV TAR-Tat
57: O=C(NCCCN1CCOCC1)C1CCN(c2nnc(-n3cccc3)s2)CC1
    -0.32, -1.84
58: CN(C(=O)Cn1cc(S(=O)(=O)Cc2ccccc2F)c2ccccc21)C1CCCCC1
    ., 1.36
59: COc1ccc(NS(=O)(=O)c2ccc3c(c2)NC(=O)CCS3)cc1OC
    ., 1.8
60: Cc1c(C(=O)NCCNc2ccc(C(F)(F)F)cc2[N+](=O)[O-])cnn1-c1ccc(F)cc1
    -0.84, .
61: COC(=O)C1=C(OC(=O)CN2C(=O)CCC2=O)c2ccccc2S(=O)(=O)N1C(C)C
    6.34*, 0.12
62: CC(C)n1c(Oc2ccc(F)cc2)nc2c1c(=O)n(C)c(=O)n2C
    -1.51, 0.67
63: COc1cc2c(cc1OC)-c1nnc(C)n1C1(CCCC1)C2
    -1.15, .
64: COc1ccccc1C1C=C(c2ccc(Cl)cc2)Nc2ncnn21 (stereo not drawn)
    ., 0.09
65: CCOC(=O)c1ccc(COC(=O)CCc2nc3ccccc3[nH]c2=O)cc1
    -0.99, -0.63
66: COc1cccc(-c2cc(C(F)(F)F)nc(-n3ccnc3)n2)c1
    -1.35, .
67: COc1cc(C2CC(=O)Nc3n[nH]c(-c4ccc(Cl)cc4)c32)ccc1O (stereo not drawn)
    -1.2, -0.88
68: CC(CC(=O)Nc1cc(F)ccc1F)S(=O)(=O)c1ccc2c(c1)CCN2C(=O)C1CC1 (stereo not drawn)
    ., 0.15
69: O=C(OCc1ccc(Cl)cc1Cl)c1ccc([N+](=O)[O-])cc1
    -1.32, .
70: Cc1ccc(S(=O)(=O)Nc2cccc(-c3ccc(N4CCOCC4)nn3)c2)s1
    ., 0.55
71: Cc1nccn1CC(O)COc1ccccc1 (stereo not drawn)
    -0.74, -0.4
72: Cn1c(=O)oc2cc(S(=O)(=O)N3CCCC(C(=O)Nc4ccc(F)cc4F)C3)ccc21 (stereo not drawn)
    -0.87, -0.53
73: CCOCCOC(=O)C1=C(C)NC2=C(C(=O)CCC2)C1c1cccc(Br)c1 (stereo not drawn)
    0.26, 0.35
74: O=C(Cn1cnc2c(oc3nc4c(cc32)CCCC4)c1=O)Nc1cccc(Cl)c1
    ., -1.21
75: COc1ccc(-n2nc3c(c2NC(=O)C2CCCCC2)CS(=O)C3)cc1 (stereo not drawn)
    -0.09, .
76: COc1ccc(CCNC(=S)Nc2ccc(Cl)cc2Cl)cc1OC
    -0.98, .
77: COCc1cc(C)nc2sc3c(c12)NCN(c1ccc(Cl)cc1)C3=O
    -1.57, 0.1
78: CCNC(=O)CN1C(=O)c2cccc3cccc1c23
    -0.31, 0.04
79: Cc1cc(CNC(=O)CN2C(=O)c3ccccc3C2=O)no1
    -0.02, .
80: Cn1ncc2c(N3CCCC3)ncnc21
    ., 1.65
81: CCOc1ccc(-c2cn(-c3ccccc3OC)c(=S)[nH]2)cc1
    -1.14, .
82: Nc1nc(CN2CCN(c3ccccc3F)CC2)nc(Nc2ccccc2Cl)n1
    ., 0.85
83: CC(C)(C)c1ccc(/C(N)=N/C(=O)N2CCOCC2)cc1
    0.61, .
84: N#Cc1nc(-c2ccc(COc3ccc(Cl)cc3)o2)oc1NCCN1CCOCC1
    -1.87, 0.84
85: Cc1cccc(-c2noc(C(=O)NNC(=O)C(Cl)(Cl)Cl)n2)c1
    -1.18, .
86: CNc1nc(NCc2ccc(OC)cc2)c2cnn(C)c2n1
    ., 1.28
87: CCOc1ccc(C2CC(=O)Nc3nc(N)[nH]c(=O)c32)cc1 (stereo not drawn)
    0.07, 0.8
88: CCOc1ccc(/C(O)=C2\C(=O)C(=O)N(CCCN3CCOCC3)C2c2ccc(C)cc2)cc1C (stereo not drawn)
    -1.43, 0.37
89: Cc1ccc2nc(C3=C(O)CN(c4cccc(Br)c4)C3=N)[nH]c2c1
    -0.81, -0.39
90: O=C(Nc1cccnc1)c1ccc(Cn2nc(N3CCN(c4ccc(F)cc4)CC3)ccc2=O)o1
    ., 0.02

Sequence of screens – CDC25B-CDK2 inh, HIV TAR-Tat
91: Cn1cc(S(=O)(=O)N2CCOCC2)cc1C(=O)NC(C)(C)C
    ., 0.97
92: COc1ccc(-c2c(C(F)(F)F)oc3cc(O)cc(O)c3c2=O)cc1
    -1.14, 0.87
93: CC(=O)N1CC(C)Sc2ccc(S(=O)(=O)N3CCCCC3C)cc21 (stereo not drawn)
    ., -0.74
94: O=C(NC1CCCCC1)c1sc(=S)n2c1[nH]c(=O)c1ccccc12
    -0.9, 6.44
95: Cc1nc2ccccc2c2c1C(=O)N(c1ccc(C(=O)OC(C)C)cc1)C2=O
    0.35, 1.48
96: Cc1ccc(C)c(NC(=O)N2CCN(c3cc(N4CCOCC4)nc(C)n3)CC2)c1
    -0.65, -1.18
97: CSc1ccc(Cn2nnc(C(=O)Nc3ccc(F)cc3)c2N)cc1
    0.85, .
98: Cc1ccc(Nc2ncnc3c2nc2n3CCCC2)cc1F
    ., -0.1
99: CC(C)CNC(=O)Cn1nnc2sc3c(c2c1=O)CCC(C)C3 (stereo not drawn)
    -1.19, 1.45
100: O=C(c1ccc(Cl)cc1)N1CCN(c2ccc(-c3cccs3)nn2)CC1
    ., 0.69
101: O=C(Nc1nccs1)c1ccccc1-c1nc(-c2ccccc2)no1
    ., -0.69
102: CCOC(=O)CSc1ncnc2scc(-c3ccccc3)c12
    -0.2, 1.81
103: O=c1oc2ccccc2c2c1ncn2Cc1ccccc1
    -0.83, 1.05
104: Cc1ccc2[nH]cc(C(O)CN3CCN(c4ccc(F)cc4)CC3)c2c1 (stereo not drawn)
    -0.39, -0.43
105: C#CCN1C(=O)C(O)(CC(=O)c2ccc(CC)cc2)c2ccccc21 (stereo not drawn)
    -0.74, 0.02
106: O=C(CSc1ccc(-c2cccnc2)nn1)Nc1ccc(Br)cc1
    ., 1.28
107: CCCn1c(C2CC(=O)N(CC3CC3)C2)nc2ccccc21 (stereo not drawn)
    -1.27, 0.61
108: Cc1ccc(C(=O)OCc2cc(=O)n3nc(-c4cccs4)sc3n2)cc1
    ., -0.04
109: CCc1cccc(-n2nnc(-c3nc(-c4ccc(C)cc4)no3)c2N)c1
    ., 0.28
110: CCOc1ccc(CCNc2nc3ccccc3c3nnc(C)n23)cc1OCC
    ., -0.76
111: CCOc1ccc(C2c3c(-c4cc(C)ccc4O)n[nH]c3C(=O)N2CCO)cc1 (stereo not drawn)
    -1.55, 1.9
112: COc1cc(C2c3c(oc4ccc(C)cc4c3=O)C(=O)N2c2nc(C)c(C)s2)ccc1O (stereo not drawn)
    3.23, 1.33
113: CCOC(=O)c1c(NC(=O)CCSc2nnc3ccccn23)sc2c1CCCC2
    -0.39, 2.43
